RVFV N-RNA inh: RVFV nucleocapsid-RNA interaction inhibition; P21700; RVFV N-RNA binding, fluorescence polarization; stronger effect = lower value; % bound, % (concentration not given with the values); 0.1% of 20,000 active; AID 651828;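 active = between 0 and 58% in either replicate with normal brightness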;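 also: 100 nL library stock added to about 12 µL; 100% = protein and probe without compound and 0% = probe alone; numbers are from one replicate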
Target sequence (P21700 whole entry, looked up): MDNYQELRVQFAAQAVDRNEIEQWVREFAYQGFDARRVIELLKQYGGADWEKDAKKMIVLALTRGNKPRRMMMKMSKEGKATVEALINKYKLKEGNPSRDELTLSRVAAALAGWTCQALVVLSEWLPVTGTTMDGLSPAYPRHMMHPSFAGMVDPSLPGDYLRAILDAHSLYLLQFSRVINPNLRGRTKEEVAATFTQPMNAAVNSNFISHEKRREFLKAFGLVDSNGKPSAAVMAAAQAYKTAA
Starred values were filed as active, the others as inactive; & = joins results of further samples.

SMILES	RVFV N-RNA inh
C[C@]12CCC(=O)C=C1CC[C@@H]1[C@@H]2CC[C@@]2(C)[C@H]1CC[C@]2(C)O	106
O=C(Cn1c(=O)cnc2ccccc21)N1CCCCC1	97
O=C(O)C1CCCCC1C(=O)NCc1cn2ccccc2n1 (centres undefined)	102
COc1cc(CN2CCOCC2)ccc1O	98
CC(C)C(=O)NCC(c1cccnc1)N1CCN(c2ccccc2)CC1 (centres undefined)	97
Cc1c(C)n(C(=O)CN2CCc3ccccc32)c2ccccc12	109
O=C(NCc1ccccc1Br)C1CCCO1 (centres undefined)	93
CCc1noc(C)c1C(=O)Nc1sc(C(=O)N(C)C)c(C)c1C(=O)OC	94
CN(C)Cc1cc(C(C)(C)C)cc(CN(C)C)c1O	109
O=C(Nc1ccc(-c2cn3c(n2)SCC3)cc1)c1ccc2c(c1)OCO2	93
NS(=O)(=O)c1ccc(NC(NC(=O)c2ccco2)C(=O)c2ccc(Cl)cc2)cc1 (centres undefined)	94
CS(=O)(=O)N1CCN(c2ccc(N)cc2)CC1	102

The list goes on, overlapping the part above by two compounds.
SMILES	RVFV N-RNA inh
NS(=O)(=O)c1ccc(NC(NC(=O)c2ccco2)C(=O)c2ccc(Cl)cc2)cc1 (centres undefined)	94
CS(=O)(=O)N1CCN(c2ccc(N)cc2)CC1	102
CC(C)C(C(=O)O)N1C(=O)/C(=C/C=C/c2ccco2)SC1=S (centres undefined)	93
O=C1CN(c2ccccc2)C(=O)CN1c1ccccc1	99
O=C(NCc1cc(F)cc2c1OCOC2)c1ccc(Oc2cc(Cl)cc(Cl)c2)o1	96
CC(C)COc1ccc(Br)cc1C(=O)O	92
Cc1cc2c(=O)n(CCOc3ccccc3)cnc2s1	95
COc1ccc(S(=O)c2ccccc2C(=O)O)cc1 (centres undefined)	91
N#Cc1cc(SCCC(=O)O)c(N2CCOCC2)cc1C#N	96
Cc1ccccc1C(=O)N1CCCCC1CO (centres undefined)	93
CCC(=O)NCC(c1ccc2c(c1)OCO2)N1CCOCC1 (centres undefined)	101
NNC(=O)c1ccncc1	97&98
OC(COC1=NCNc2cc(Cl)ccc21)c1ccc(F)cc1 (centres undefined)	97
Nc1[nH]nc2nnc(-c3c(-c4ccccc4)nn4ccccc34)cc12	99
CCCC[C@@H](CC)COC(=O)C(C#N)=C(c1ccccc1)c1ccccc1	99
OCC1CCCCCN1 (centres undefined)	87
CC1CC(=O)C=C(O)C1C(=O)OC(C)(C)C (centres undefined)	93
CCSc1nc(N)c(NC(=O)c2ccc(OC)c(OC)c2)c(=O)[nH]1	92
O=C(CCCC(=O)Nc1ccccc1)Nc1ccccc1	96
NCCc1ccccn1	101
COC(=O)Cn1c(=NC(=O)C2CCCCC2)sc2cc(OC)ccc21	88
N#CCn1ccn(-c2ccc(F)c(Cl)c2)c(=O)c1=O	99
C#CCn1cnc2c(oc3ccccc32)c1=O	102
O=C1NC(=Nc2ccccc2)S/C1=C/C=C/c1ccco1	103
CS(=O)(=O)Nc1ccc(C(=O)NCCc2ccccc2)cc1	100
O/N=C\c1ccc(-c2ccc(Cl)cc2)o1	95
C/C(NNc1ccccc1)=C(/C#N)C(N)=S	95
CCn1ncc(Br)c1C(=O)Nc1nccs1	89
Cc1oc(C(C)(C)C)cc1C(=O)NC1CCN(Cc2ccccc2)CC1	97
O=C(c1ccco1)N1CCC2(CC1)OCCO2	100
C=CCN1C(=O)CC(=O)NC1=S	102
CNC(=O)NCCc1ccc(Cl)cc1	101
CCOCCOc1nc(C)cc(C)c1C#N	97
O=C1c2ccccc2C(=O)N1CC(O)COc1ccc(Cl)cc1Cl (centres undefined)	86
CCOC(=O)c1cn2nc(N3CCCCC3)ccc2n1	92
CC(C)C[C@H](NC(=O)[C@@H](COC(C)(C)C)NC(=O)[C@H](Cc1ccc(O)cc1)NC(=O)[C@H](CO)NC(=O)[C@H](Cc1c[nH]c2ccccc12)NC(=O)[C@H](Cc1cnc[nH]1)NC(=O)[C@@H]1CCC(=O)N1)C(=O)N[C@@H](CCCN=C(N)N)C(=O)N1CCC[C@H]1C(=O)NNC(N)=O	96
CN1CCN(c2ccc(CNS(=O)(=O)c3cn(C)cn3)cc2)CC1	97
O=C(Nc1nc(-c2ccc(S(=O)(=O)N3CCCC3)cc2)cs1)c1cccs1	95
CCCN(CCC)C1CCc2cccc(O)c2C1 (centres undefined)	94
CCCN1C(=O)/C(=C/c2c(N3CCCC3)nc3ccccn3c2=O)SC1=S	113
CCn1c2ccccc2c2cc(CN3CCCC3)ccc21	93
COc1ccc(CCNS(=O)(=O)c2ccc(C3CNC(=O)C3)cc2)cc1OC (centres undefined)	102
CCn1cc(C(=O)O)c(=O)c2ccc(C)nc21	98&92
CC(C)Cn1c(N)c(C(=O)NCc2ccc3c(c2)OCO3)c2nc3ccccc3nc21	96
CC(=O)Oc1ccc(C(c2ccc(OC(C)=O)cc2)c2ccccn2)cc1	98
C(=N\N=C(c1ccccc1)C12CN3CN(CN(C3)C1)C2)/c1ccccc1	103
O=c1[nH]oc2c1CCNC2	90
CC1CCN(C(=O)Oc2ccccc2)CC1	71
O[Si](CCCN1CCCCC1)(c1ccc(F)cc1)C1CCCCC1 (centres undefined)	95
CC(C)C1NC(=O)CNC1=O (centres undefined)	96
CC12C=CC(O1)C1C(=O)N(c3ccc(F)c(Cl)c3)C(=O)C12 (centres undefined)	93
O=C(O)c1nc(-c2ccccc2)cc(-c2ccccc2)n1	104
COc1ccc(/C=C2\SC3C(C#N)=C(c4ccc(OC)cc4)C(C#N)=C(N)N3C2=O)cc1 (centres undefined)	97
Cc1ccc(/C=N/N=C/c2ccc(C)s2)s1	104
NC1=NC(=O)N2CC12 (centres undefined)	104
CC(O)(CC(=O)O)CC(=O)O	104
CN(C)C(=O)C1OC(C)(C)OC1C(=O)N(C)C (centres undefined)	93
CCOC(=O)C1=C(C)OC2(O)c3ccccc3C(=O)C12O (centres undefined)	97
Cc1cc(C(F)(F)F)nc(SCC(=O)c2ccccc2)n1	91
CN(C)CCN1C(=O)c2oc3ccc(F)cc3c(=O)c2C1c1cccs1 (centres undefined)	91
Cc1c(-c2csc(-c3ccc4c(c3)OCCO4)n2)cnn1-c1ccccc1	92
CCCN=Cc1c(O)n(C2CCCCC2)c(=O)n(C2CCCCC2)c1=O	98

23 structures already listed, arranged by molar mass, lowest first:
SMILES	RVFV N-RNA inh
NC1=NC(=O)N2CC12 (centres undefined)	104
OCC1CCCCCN1 (centres undefined)	87
O=c1[nH]oc2c1CCNC2	90
O/N=C\c1ccc(-c2ccc(Cl)cc2)o1	95
C#CCn1cnc2c(oc3ccccc32)c1=O	102
CCn1cc(C(=O)O)c(=O)c2ccc(C)nc21	98&92
Cc1ccccc1C(=O)N1CCCCC1CO (centres undefined)	93
CCCN(CCC)C1CCc2cccc(O)c2C1 (centres undefined)	94
COc1ccc(S(=O)c2ccccc2C(=O)O)cc1 (centres undefined)	91
CCn1c2ccccc2c2cc(CN3CCCC3)ccc21	93
O=C(NCc1ccccc1Br)C1CCCO1 (centres undefined)	93
Cc1cc2c(=O)n(CCOc3ccccc3)cnc2s1	95
CCOC(=O)C1=C(C)OC2(O)c3ccccc3C(=O)C12O (centres undefined)	97
O=C(O)C1CCCCC1C(=O)NCc1cn2ccccc2n1 (centres undefined)	102
CCC(=O)NCC(c1ccc2c(c1)OCO2)N1CCOCC1 (centres undefined)	101
CS(=O)(=O)Nc1ccc(C(=O)NCCc2ccccc2)cc1	100
CC(C)C(C(=O)O)N1C(=O)/C(=C/C=C/c2ccco2)SC1=S (centres undefined)	93
C(=N\N=C(c1ccccc1)C12CN3CN(CN(C3)C1)C2)/c1ccccc1	103
CCSc1nc(N)c(NC(=O)c2ccc(OC)c(OC)c2)c(=O)[nH]1	92
COC(=O)Cn1c(=NC(=O)C2CCCCC2)sc2cc(OC)ccc21	88
O=C1c2ccccc2C(=O)N1CC(O)COc1ccc(Cl)cc1Cl (centres undefined)	86
CCc1noc(C)c1C(=O)Nc1sc(C(=O)N(C)C)c(C)c1C(=O)OC	94
O=C(NCc1cc(F)cc2c1OCOC2)c1ccc(Oc2cc(Cl)cc(Cl)c2)o1	96

(next part)
SMILES	RVFV N-RNA inh
O=C(O)c1ccccc1COc1ccccc1Cl	89
COC(=O)CC1NC(=O)NC1=O (centres undefined)	99
CCOC(=O)c1csc(-c2cn(-c3ccccc3)c(=O)n(C)c2=O)n1	92
Oc1ccc2c3c1O[C@H]1[C@@H](O)CC[C@@]4(O)[C@@H](C2)N(CC2CCC2)CC[C@]314	92
O=C(N/N=C/c1ccc(Br)s1)C1CC12CCC2 (centres undefined)	98
CCOC(=O)C1=C(C)NC(C)=CC1=C(C#N)C#N	98
COc1ccc(CSCC(=O)NCCN2CCOCC2)cc1	95
COc1cc(C2c3c(oc4ccccc4c3=O)C(=O)N2CCCOC(C)C)cc(Br)c1O (centres undefined)	98
C#CCn1c(C(C)Oc2ccccc2)nc2ccccc21 (centres undefined)	90
Cc1cc(C)cc(C(=O)NCCCN2CCOCC2)c1	101
Cc1ccc(C(=O)NC2CCCCNC2=O)cc1C (centres undefined)	87
O=C(/C=C/c1ccccc1)Nc1ncn[nH]1	96
COC(=O)c1cc(C(=O)OC)n(Cc2ccc(Cl)cc2Cl)n1	92
CNC(=O)Nc1cccc(C(F)(F)F)c1	89
CC1CCN(c2nc3c(S(=O)(=O)c4ccccc4)nnn3c3ccccc23)CC1	81
NC(CCCP(=O)(O)O)C(=O)O (centres undefined)	101
CC(C)(C)c1ccc(-c2noc(-c3ccccc3)n2)cc1	96
O=C(Nc1nnc(-c2ccco2)o1)c1ccc(S(=O)(=O)N2CCCc3ccccc32)cc1	101
CC(=O)O/N=C/c1ccc2c(c1)CCO2	93
C=CCNc1ncnc2cc(OC)c(OC)cc12	85
S=C(NC1CC2CCC1C2)NN1C2CSC1CS2 (centres undefined)	95
O=C(CSc1nc2c(c(=O)n1Cc1ccccc1)SCC2)N1CCCC1	94
CCOC(=O)CCc1c(C)c2cc(Cl)c(OCC(N)=O)cc2oc1=O	92
O=C1CC(=O)N(c2cccc(F)c2)C(=S)N1	91
N=C1S/C(=C\c2ccco2)C(=O)N1c1ccc(Oc2ccccc2)cc1	97
CN1C(=O)C2C(C1=O)C1(C)C=CC2(C)O1 (centres undefined)	98
O=C(NCC1COC2(CCCC2)O1)C1CC1 (centres undefined)	93
Cc1cc(C)c2c(n1)sc1c(=O)n(/N=C/c3cccs3)cnc12	99
O=S(=O)(NCCc1csc2nc(-c3ccccc3)nn12)c1ccccc1	109
Oc1ccc(CN2CCN(Cc3ccccc3)CC2)c2cccnc12	101
NCC(O)c1ccc(O)c(O)c1 (centres undefined)	93&94
CCOC(=O)c1ccc(OC(=O)CCCCCN=C(N)N)cc1	106
Cc1ccc(Cc2c(C)nc(NCc3ccccc3)[nH]c2=O)cc1	93
Cc1ccccc1OCc1ccc(C(=O)NC(C)C)o1	96
CCOC(=O)c1c(CNC(=O)c2ccc(N3CCOCC3)nc2)c(C)n(C2CC2)c1C	91
CCC(=O)O[C@]1(C(=O)CCl)[C@@H](C)C[C@H]2[C@@H]3CCC4=CC(=O)C=C[C@]4(C)[C@@]3(F)[C@@H](O)C[C@@]21C	107&110
Cc1cc2nccc(-c3cccnc3)n2n1	83
CC(C)(C)N1C(=O)NC(=O)/C(=C\c2ccco2)C1=O	101
Nc1cc(=O)[nH]c(=O)n1-c1cccc(Cl)c1	101
C[C@H](Cc1ccc(O)c(O)c1)[C@@H](C)Cc1ccc(O)c(O)c1	97
O=C1NC2(CCCCC2)Oc2ccccc21	111
CCNS(=O)(=O)c1ccc(NC(=O)c2ccccc2OCC)cc1	99
Cc1ccc(NC(=O)N2CCCn3c(SCC(=O)c4ccccc4)nnc32)cc1	94
CC(=O)OC1C([N+]2(C)CCCCC2)C[C@H]2C3CC[C@H]4C[C@H](OC(C)=O)C([N+]5(C)CCCCC5)CC4(C)[C@H]3CCC12C (some centres undefined)	97
C/C=C/C=N/Nc1nnc2c(n1)[nH]c1ccccc12	112
CCCOc1ccc2c(c1)C(=O)c1cc(OCC(=O)O)ccc1-2	92
O=C(O)CC1NC(=O)NC1=O (centres undefined)	97
c1ccc2c(c1)Oc1ccccc1C2N1CCOCC1	100
Cc1ccc(/C=[N+](\[O-])c2ccccc2C)o1	96
C=CCN(Cc1nc(-c2ccccc2)no1)C(=O)COc1ccccc1	95
COc1ccc(OCC#CCOc2ccccc2)cc1	97
Cc1ccc(C=Nc2ccccc2C(N)=O)s1	93
Cc1ccc(NP(C(C)C)C(C)C)nc1	97
COc1ccc(CNC(=O)C2COc3ccccc3O2)cc1 (centres undefined)	91
COc1ccc(Cl)cc1NC(=O)Nc1cc(C)nc2ccccc12	100
O=C(CSc1nc(=O)n2ccccc2n1)OCc1ccccc1	97
COc1cccc(Nc2ncnc3nc[nH]c23)c1	96
Cc1sc(NC(=O)CSc2ccccc2)c(C#N)c1C	91
Cc1cccc(NNC(=O)CCc2ccccc2)c1	100
CCOC(=O)C1CCN(Cc2coc3ccc(C)cc3c2=O)CC1	101
Other entries follow:
SMILES	RVFV N-RNA inh
CCC(C)NC(=O)Cc1coc2cc(C)ccc12 (centres undefined)	95
O=C(Sc1nnnn1-c1ccccc1)c1ccccc1Br	99
O=C(O)Cc1cccc2ccccc12	90
N#CCSc1nc(-c2ccccc2)c2cc(Cl)ccc2n1	94
CC1=CCC(COC(=O)CN2CCCCC2)CC1 (centres undefined)	92
CCSc1ccccc1C(=O)Nc1nncs1	89
O=C(NCCCc1ccccc1)NC1CC(=O)N(c2ccc(F)cc2)C1 (centres undefined)	94
Cc1cc(C)n2ncc(/C(N)=N/OC(=O)c3ccccc3F)c2n1	95
CC(C)c1ccc(NC(=O)c2ccc(N(C)C)cc2)cc1	105
O=C(CSc1ncccn1)N/N=C/c1cccc2c1OCCO2	98
CN1c2ccsc2C(=O)CS1(=O)=O	86
Cc1ccccc1NC(=O)NCC1CCN(C(=O)OC(C)(C)C)CC1	97

Bioassay records deposited in PubChem by ICCB-Longwood Screening Facility, Harvard Medical School.

Not all compounds are listed (hit frequency here may not be typical).
